# FGF22 binding: binders of human FGF22 protein, primary screen, FGF22 synaptogenesis inhibitor project, biophysical, thermal shift, single point | Fibroblast growth factor 22 (Homo sapiens), Q9HCT0 | actives 1.5% (n = 340,000) | calls only at 9.99 µM | recombinant FGF22 thermal shift, SYPRO orange fluorescence; percent of sucrose octasulfate shift, DMSO zero | AID 651658, 2012;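 active = melting point raised past a set limit in the mean and every replicate; three in four hits are not shown here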
# Target sequence (Q9HCT0 whole entry, looked up): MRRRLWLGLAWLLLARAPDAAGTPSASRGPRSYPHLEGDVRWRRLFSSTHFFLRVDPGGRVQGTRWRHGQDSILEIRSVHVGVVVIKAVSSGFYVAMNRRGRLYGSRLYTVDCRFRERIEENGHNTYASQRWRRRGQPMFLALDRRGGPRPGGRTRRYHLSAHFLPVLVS
# Beta2AR agonist: beta2AR agonists driving receptor internalization, primary screen, cell-based, FAP fluorogen, flow cytometry; Beta-2 adrenergic receptor (Homo sapiens), P07550; Am2.2-beta2AR cells; reference of the scale not given here; response, % (concentration not given with the values); actives 0.43% (n = 340,000);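 active = response above a set limit, near 3 SD of response in nonfluorescent compounds, cut at about 42% in these data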;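 note: stock transfer was 100 nL into about 11 µL; a reference agonist was the positive control; negative values mostly stem from fluorescent compounds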
# HNF4A DNA FP: change in binding of human HNF4A to DNA, primary screen, biochemical, fluorescence polarization, FITC-DNA | Hepatocyte nuclear factor 4-alpha (Homo sapiens), P41235 | 1 h | activity change, % at 10 µM | actives 0.3% (n = 360,000); in the data active = activity change above about 30%, passing the limit was not always enough;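 note: controls were the assay level and a saturating level of protein; the project sought stronger binding though the title names inhibitors; some compounds called inactive have numbers as strong as hits; positive values seem to mean higher polarization but the record does not say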
# Target sequence (P41235 whole entry, looked up): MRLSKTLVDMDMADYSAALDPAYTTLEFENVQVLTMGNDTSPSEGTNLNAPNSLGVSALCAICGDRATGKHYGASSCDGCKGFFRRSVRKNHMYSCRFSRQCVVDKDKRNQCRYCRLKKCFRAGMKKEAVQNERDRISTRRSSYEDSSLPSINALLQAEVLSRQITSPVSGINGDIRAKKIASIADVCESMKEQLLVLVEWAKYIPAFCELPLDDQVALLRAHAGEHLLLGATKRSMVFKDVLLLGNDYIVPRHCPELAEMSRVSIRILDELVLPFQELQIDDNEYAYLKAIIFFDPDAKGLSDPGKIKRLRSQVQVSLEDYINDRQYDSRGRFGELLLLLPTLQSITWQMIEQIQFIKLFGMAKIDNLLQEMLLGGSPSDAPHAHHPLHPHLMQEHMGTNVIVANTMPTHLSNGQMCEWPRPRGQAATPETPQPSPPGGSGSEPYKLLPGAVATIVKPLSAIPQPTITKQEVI
# E coli growth: E. coli growth inhibition, primary screen, OD600 | Escherichia coli growth, 23 h; active compounds read low | actives 0.21% (n = 330,000) | AID 1053175, 2014 | OD600 absorbance (concentration not given with the values);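 active = OD600 absorbance below the run mean of sample wells minus 3.6 SD, in any replicate, cut at about 0.56 in these data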;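 note: stock transfer was 300 nL into about 60 µL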
# rRNA inh HTS: reduced GFP signal of wild-type E. coli, primary screen, bacterial rRNA inhibitor project, GFP/RFP fluorescence, OD600, single point | E. coli WT GFP vs humanized-ribosome RFP mutants, 24 h; active compounds read low; DMSO median 0, no signal -100 | GFP signal change (wild-type ribosome), % (concentration not given with the values) | actives 1.6% (n = 350,000) | AID 720706, 2013;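 active = significant combined selectivity score with lowered wild-type GFP, culture density cut under 30%, mutant RFP and density less affected; inactive = any of these conditions unmet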; note: one replicate is shown; some compounds called inactive have numbers as strong as hits
# UCH37 DUB inh: inhibitors of human UCH37 deubiquitinase, primary screen, biochemical, Ub-AMC cleavage, fluorescence; Ubiquitin carboxyl-terminal hydrolase isozyme L5 (Homo sapiens), Q9Y5K5; actives 0.33% (n = 330,000); purified proteasome/UCH37; inhibition, % (test concentration not listed); AID 588478, 2011;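 active = mean of two replicates above 20%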;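 note: 0% = compound-free wells with enzyme and 100% = wells lacking proteasome; stock transfer was 100 nL into about 20 µL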
#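 Reagent: Ub-AMC substrate; assay system: Proteasome-associated human UCH37 deubiquitinase; controls: no-proteasome and no-compound wells; read-out: % inhibition of Ub-AMC cleavage fluorescence; timing: 30 min preincubation with enzyme, 25 min cleavage at room temperature; signal: AMC fluorescence from Ub-AMC cleavage, excitation 355 nm, emission 460 nm; buffer or medium: Tris-HCl pH 7.4 plus ovalbumin, ATP-MgCl2, DTT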
# ALR H2O2 inh: inhibitors of human ALR sulfhydryl oxidase, primary screen, biochemical, H2O2 detection, HRP-luminol luminescence, single point. FAD-linked sulfhydryl oxidase ALR (Homo sapiens), P55789. purified ALR, DTT oxidation. inhibition, % (no concentration beside the values). actives 3.8% (n = 290,000);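 active = mean and each replicate at 75% or more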;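 note: stock transfer was 7.5 nL into about 7.5 µL; 0% = neutral wells and 100% = wells with inactivated enzyme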
# Target sequence (P55789 whole entry, looked up): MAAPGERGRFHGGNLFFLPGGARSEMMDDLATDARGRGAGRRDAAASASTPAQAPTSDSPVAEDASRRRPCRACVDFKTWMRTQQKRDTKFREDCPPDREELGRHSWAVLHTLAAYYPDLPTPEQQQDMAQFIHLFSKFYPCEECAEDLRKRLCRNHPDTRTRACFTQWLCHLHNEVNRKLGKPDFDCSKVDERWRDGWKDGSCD
# rRNA inh HTS OD600: also measured in rRNA inh HTS; calls as there; OD600 change, %; measured here: OD600 growth;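 optical density of the mix in the first replicate; 0 = DMSO median and -100 = no signal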
# rRNA inh HTS RFP: also measured in rRNA inh HTS; calls as there; RFP signal change, %; measured here: RFP humanized mutant strains;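 first replicate; 0 = DMSO median and -100 = no signal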
# An asterisk follows results filed as active; i = inactive; · = no result given; & = joins results of further samples. Not all compounds are listed; the hit share may differ from the screen's.
No.	mol	FGF22 binding	Beta2AR agonist	HNF4A DNA FP	E coli growth	rRNA inh HTS	rRNA inh HTS OD600	rRNA inh HTS RFP	UCH37 DUB inh	ALR H2O2 inh
1	CCN1CCN(c2ccc([N+](=O)[O-])cc2C(=O)c2ccc(Cl)cc2)CC1	·	-4.8	-3.0	0.646	·	·	·	2.2	-3.7
2	Cc1occc1-c1nnc(SCC(=O)NC2CCCC2)n1-c1ccccc1	·	0.5	1.4	0.694	·	·	·	0.8	1.2
3	CCn1ncc(CNC(=O)C2(C)CC2(Cl)Cl)c1C (stereo unspecified)	i	7.5	3.8	0.676	7.3	12.8	-1.6	3.1	0.6
4	CCC(C)C(NC(=O)OCc1ccccc1)C(=O)NC(Cc1ccc(O)cc1)C(=O)OC (stereo unspecified)	i	1.7	0.5	0.715	10.6	10.6	0.6	3.1	8.1
5	Clc1ccc(SCc2cc(-c3ccccc3)on2)cc1	·	-3.5	0.7	0.754	·	·	·	5.7	5.6
6	CS(=O)(=O)N1CCC(C(=O)Nc2ccc(OCc3ccccc3)cc2)CC1	·	8.3	2.0	0.711	8.7	4.8	-1.3	2.8	-2.9
7	COc1ccc2sc(-c3ccccc3OC)c(-c3ccc(OCCN4CCOCC4)cc3)c2c1	·	2.1	0.9	0.704	·	·	·	0.4	·
8	COC(=O)C[C@H]1C=C[C@H](NC(=O)c2ccccn2)[C@@H](CO)O1	·	·	5.2	·	1.7	13.3	-1.4	·	·
9	CCC(=O)Nc1ccc(S(=O)(=O)N2CCCCC2)cc1OC	·	0.4	2.0	0.749	·	·	·	1.9	1.9
10	CC(=O)Nc1ccc(NC(=O)CSc2ccc(-c3cccnc3)nn2)cc1	i	-10.3	0.9	0.688	8.0	9.7	3.7	-0.7	-31.4
11	CCOC(=O)/C=C/C(=O)Nc1ccc(-c2nnc3n2CCCCC3)cc1	i	-8.5	4.4	0.664	7.1	9.8	-1.0	2.0	-4.8
12	CCOc1ccc(S(=O)(=O)N2CCN(Cc3ccccc3)CC2)cc1	i	-2.2	-3.6	0.605	-24.7	-27.0	-15.0	3.2	2.5

# Fetched by compound from the entries so far, six records:
No.	mol	FGF22 binding	Beta2AR agonist	HNF4A DNA FP	E coli growth	rRNA inh HTS	rRNA inh HTS OD600	rRNA inh HTS RFP	UCH37 DUB inh	ALR H2O2 inh
5	Clc1ccc(SCc2cc(-c3ccccc3)on2)cc1	·	-3.5	0.7	0.754	·	·	·	5.7	5.6
6	CS(=O)(=O)N1CCC(C(=O)Nc2ccc(OCc3ccccc3)cc2)CC1	·	8.3	2.0	0.711	8.7	4.8	-1.3	2.8	-2.9
8	COC(=O)C[C@H]1C=C[C@H](NC(=O)c2ccccn2)[C@@H](CO)O1	·	·	5.2	·	1.7	13.3	-1.4	·	·
1	CCN1CCN(c2ccc([N+](=O)[O-])cc2C(=O)c2ccc(Cl)cc2)CC1	·	-4.8	-3.0	0.646	·	·	·	2.2	-3.7
10	CC(=O)Nc1ccc(NC(=O)CSc2ccc(-c3cccnc3)nn2)cc1	i	-10.3	0.9	0.688	8.0	9.7	3.7	-0.7	-31.4
12	CCOc1ccc(S(=O)(=O)N2CCN(Cc3ccccc3)CC2)cc1	i	-2.2	-3.6	0.605	-24.7	-27.0	-15.0	3.2	2.5

# (continued)
No.	mol	FGF22 binding	Beta2AR agonist	HNF4A DNA FP	E coli growth	rRNA inh HTS	rRNA inh HTS OD600	rRNA inh HTS RFP	UCH37 DUB inh	ALR H2O2 inh
13	CS(=O)(=O)N1CCc2cc(C(=O)NC3CC3)ccc21	i	-1.1	4.3	0.697	21.9	15.9	2.3	1.6	-2.6
14	COc1ccc(Cn2nnnc2C(c2cccs2)N2CCN(c3ccccc3)CC2)cc1 (stereo unspecified)	·	4.7	-1.0	0.706	·	·	·	3.9	4.6
15	COc1ccc(-n2c(CCc3ccccc3)n[nH]c2=S)cc1	i	3.7	1.5	0.702	-14.6	-23.2	-4.2	5.0	9.7
16	Cc1cc(OCC(=O)N2CCC(C(=O)O)CC2)c2c(C)c(C)c(=O)oc2c1	i	-9.6	2.6	0.716	·	·	·	-115.3	·
17	O=S(=O)(c1ccc(NC(=S)NN=Cc2ccccc2O)cc1)N1CCCCC1	i	4.5	5.4	·	-22.5	-45.0	-2.2	·	·
18	CCc1ccc(C2NC(=S)NC3=C2C(=O)N(c2ccccc2OC)C(c2ccc(CC)cc2)N3)cc1 (stereo unspecified)	·	15.3	1.4	0.633	·	·	·	-4.7	-3.7
19	Cc1ccc2oc(=O)cc(CN3CCN(Cc4ccccc4)CC3)c2c1	i	4.7	2.2	0.7	6.9	-0.3	-5.5	0.8	0.7
20	Cc1cccc(NC(=O)[C@@H]2CCCN2C(=O)OC(C)(C)C)c1C	i	4.7	0.6	0.626	9.9	8.4	-0.5	-0.8	-2.9
21	CC(Oc1ccc2ccc(=O)oc2c1)C(=O)c1ccccc1 (stereo unspecified)	i	-23.4	1.9	0.657	-5.9	6.5	6.3	0.9	-7.2
22	COc1cccc(-c2nn(-c3ccccc3)cc2CNC(C)Cn2cncn2)c1 (stereo unspecified)	i	-16.3	1.2	0.692	8.4	-1.1	2.6	1.0	-3.6
23	Cc1noc(C)c1CSCC(=O)N(C)CC(=O)Nc1ccccc1Cl	i	-0.4	-0.2	0.675	14.8	8.2	1.8	1.3	-2.0
24	CCOC(=O)/C=C/C(=O)N1CCN(C(=O)/C=C/C(=O)OCC)CC1	i	-0.1	0.4	0.672	4.0	4.7	5.8	-3.6	·
25	CC1(C(=O)NS(=O)(=O)c2ccc(F)cc2F)CCN1C(=O)CC1CC1 (stereo unspecified)	i	·	-0.3	·	18.8	19.1	0.0	·	·
26	COc1ccccc1NC(=O)c1ccc(COc2ccc3c(c2)CCC3)cc1	i	2.1	-1.3	0.686	1.9	0.1	-1.1	1.2	1.3
27	CCCc1cc(=O)oc2cc(OC(C)C(=O)NCC3CCC(C(=O)O)CC3)c(Cl)cc12 (stereo unspecified)	i	1.9	4.2	0.752	3.6	16.0	1.3	-9.7	-3.6
28	C[C@H]1CN([C@@H](C)CO)C(=O)c2cc(-c3ccccc3F)cnc2O[C@H]1CN(C)C(=O)C1CCOCC1	i	·	-1.4	·	9.6&8.1	6.6&8.9	1.1&-0.7	·	·
29	O=C(Nc1cccc(F)c1)OC(CN1CCCCC1)C(F)(F)F (stereo unspecified)	·	8.1	-3.1	0.744	·	·	·	1.2	-5.3
30	CCOC(=O)c1c(C)n(C)c2ccc(OC)c(NC(=O)CN3CCSCC3)c12	·	-5.2	-1.2	0.671	·	·	·	4.7	3.2
31	Cc1ccc(N2CC(C(=O)OCc3nnc(-c4ccccc4)o3)CC2=O)cc1 (stereo unspecified)	i	-15.0	0.4	0.725	0.7	0.2	-1.7	3.7	-5.3
32	COc1cc(NS(=O)(=O)c2ccc(NC(=S)NC(=O)C(C)(C)C)cc2)nc(OC)n1	i	-0.3	7.2	0.708	-8.2	-15.8	-8.2	-1.1	19.4
33	O=C1OC(c2ccccc2)(c2ccc3cc(O)ccc3c2)c2ccccc21 (stereo unspecified)	i	28.3	-3.0	0.687	·	·	·	4.4	·
34	N#C/C(=C\c1ccc(OC(F)F)cc1)C(=O)N1CCCCC1	i	28.0	0.2	0.692	-10.6	-5.2	0.8	6.0	0.1
35	CC(=O)N1CCN(c2ccnc3cc(Cl)ccc23)CC1	i	2.9	-9.7	0.654	-7.5	1.2	1.3	4.4	-6.5
36	CC(C)CCNC(=O)CN1N=C(c2ccc(Cl)cc2)CCC1=O	i	-16.6	-2.5	0.689	-5.8	-3.9	2.0	0.8	-8.5
37	CC1CC(C)CN(S(=O)(=O)c2ccc(C(=O)NNC(=O)c3ccccc3F)cc2)C1 (stereo unspecified)	i	-3.4	1.2	0.67	-0.7	5.1	-2.8	1.5	39.3
38	Cc1ccc(C(=O)O)cc1S(=O)(=O)N1CCSCC1	·	4.0	-1.0	0.717	·	·	·	3.7	-1.5
39	O=C(Nc1ccc(NC(=O)C2CC2)cn1)c1ccccc1	i	-8.9	-0.8	0.675	1.8	2.7	0.0	4.7	·
40	Cc1cccc(NC(=O)c2ccccc2OCC(=O)c2ccccc2)c1	·	-23.4	-1.2	0.725	·	·	·	0.8	-4.5
41	Cc1cc(C(=O)OCC(=O)N2CCN(c3ccccc3)CC2)c2ccccc2n1	·	7.8	0.2	0.731	·	·	·	4.3	14.3
42	NS(=O)(=O)c1ccc(NC(=O)Nc2ccccc2)cc1	i	3.7	-2.9	0.618	-6.2	10.3	-0.9	3.6	-5.4
43	Cc1cccc(N2C(=O)CC(NNc3nc4ccccc4s3)C2=O)c1 (stereo unspecified)	·	4.1	-1.1	0.685	-2.2	-5.5	-2.9	1.9	3.8
44	Cc1ccc(N(CC(=O)N2CCCC2)S(C)(=O)=O)cc1C	i	1.7	-1.0	0.608	16.2	13.7	3.0	0.8	-2.5
45	Cc1ccc(COc2cccc3c2CCN(Cc2ccc(F)cc2)C3=O)cc1	·	-2.7	4.7	0.695	·	·	·	0.8	-15.2
46	COc1ccc(NC(=O)C2CCCN(S(=O)(=O)c3ccc4c(c3)oc(=O)n4C)C2)cc1OC (stereo unspecified)	i	-9.7	-2.2	0.71	-1.4	1.7	0.1	-2.9	-15.4
47	Cc1ccc(C)c(C(=O)CCC(=O)NNC(=O)Cn2nc(C)cc2C)c1	i	0.2	3.9	0.647	8.7	6.6	-0.2	2.4	1.2
48	CNS(=O)(=O)c1cc(S(=O)(=O)NC)c2cccc3c2c1NC3=O	i	8.8	1.4	0.681	10.9	9.2	-0.5	-260.2	-5.0
49	CN(C)S(=O)(=O)c1ccc(N2CCCC2)c(C(=O)NNC(=O)c2ccc(F)cc2)c1	i	14.6	2.8	0.682	0.4	2.2	-2.3	2.0	0.5
50	COc1ccc(OC)c(S(=O)(=O)NC2CCSc3ccccc32)c1 (stereo unspecified)	i	-3.2	5.8	0.672	1.6	-34.3	-1.0	1.7	-1.1
51	Cc1ccc(S(=O)(=O)N2CCN(C(=O)c3cccs3)CC2)cc1	i	-3.8	4.6	0.741	0.6	-2.5	-0.7	1.7	-6.6
52	Cc1noc(C)c1S(=O)(=O)Nc1ccc(C(=O)N2CCN(c3ccc(F)cc3)CC2)cc1	i	4.4	1.2	0.662	14.4	4.2	-6.2	0.3	9.7
53	Cc1c(C)c2ccc(OC(C)C(=O)NC3CCN(Cc4ccccc4)CC3)cc2oc1=O (stereo unspecified)	i	-9.0	-3.1	0.665	0.0	3.7	-0.5	-103.5	-3.5
54	CCN(CC)C(=O)NC1CC(=O)N(c2ccc(OC)cc2)C1 (stereo unspecified)	i	-2.6	0.4	0.7	5.1	-6.9	-1.3	2.9	-4.0

# Screening results (PubChem)
